MT1-MMP act inh – blocks activation of human MT1-MMP; HT1080 RFP-PRO-GFP cells, GFP/RFP ratio fluorescence, overnight; percent of plate control window, DMSO zero; GFP/RFP ratio change, % at 20 µM; 360,000 compounds, 0.061% hits; P50281;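 active means GFP/RFP ratio change of at least 30% with cell ATP level not reduced by more than half and red fluorescence within 50% of control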; further: strong numbers were not always called active
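Assay system: HT1080 cells carrying an RFP-PRO-GFP reporter | Dosing: Single dose of 20 µM compound, 1% DMSO final | Incubation: Cells overnight before dosing, compound overnight, 37 °C, 5% CO2 | Evaluation: GFP/RFP fluorescence ratio | Control set: DMSO and RFP-L50D-GFP cell wells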
Rce1 inhib – inhibitors of yeast Ras-converting enzyme; Q03530; yeast membranes, quenched prenylated peptide cleavage fluorescence; calls only; 290,000 compounds, 0.27% hits;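 active means fall in fluorescence gain of 50% or more versus controls, with final raw signal at or below 3038400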;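 further: plate controls were neutral control wells for no effect and wells lacking membranes for full effect; tested at 10 µM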
Target sequence (Q03530 whole entry, looked up): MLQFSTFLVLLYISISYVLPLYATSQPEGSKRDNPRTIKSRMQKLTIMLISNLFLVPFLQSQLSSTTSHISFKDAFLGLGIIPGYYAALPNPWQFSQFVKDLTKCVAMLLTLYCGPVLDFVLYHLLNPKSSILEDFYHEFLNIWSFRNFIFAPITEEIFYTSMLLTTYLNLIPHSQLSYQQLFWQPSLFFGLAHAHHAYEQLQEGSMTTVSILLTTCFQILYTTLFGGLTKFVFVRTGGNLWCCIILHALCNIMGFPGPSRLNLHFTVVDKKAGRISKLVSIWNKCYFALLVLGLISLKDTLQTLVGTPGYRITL
UUG fidelity – alters start codon recognition fidelity in yeast | S. cerevisiae UUG-firefly luciferase reporter, luminescence/redox ratio | activity score, % at 18.7 µM | 350,000 compounds, 0.13% hits | AID 602363;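 active means replicate mean at a twofold rise or more, about +100% in these data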;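 further: firefly luciferase made from a UUG start codon reports start codon fidelity; reporter light over untreated wells divided by growth signal over untreated wells; some hits fall short of that in this replicate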
eIF4H inh – inhibitors of RNA binding by human eIF4H. Q15056. eIF4H fluorescence polarization binding assay. inhibition, % at 35 µM. 290,000 compounds, 0.94% hits;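 active means 50% or more with normal probe brightness, or confirmed in later tests; about a fifth of its hits are not listed in these tables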;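 further: calls also rest on retests at 20 µM and on dose response follow-up; 0% = protein and probe with vehicle and 100% = probe without protein; strong numbers were not always called active; many hits fall short of the cut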
PABP FP inh – PABP-poly(A) binding inhibition | P11940 | PABP-poly(A) RNA binding, fluorescence polarization | inhibition, % at 35 µM | 290,000 compounds, 1% hits | AID 2014;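 active means 50% or more with normal probe brightness, or confirmed in later tests; about a fifth of its hits are not listed in these tables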;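 further: calls also rest on retests at 20 µM and on dose response follow-up; controls were probe without protein and protein plus probe with vehicle; some compounds called inactive have numbers as strong as hits; many hits fall short of the cut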
CSC inhib – cancer stem cell inhibition; cancer stem cell-like cells viability, luminescence; AID 2717; 300,000 compounds, 1.1% hits; inhibition, % at 7.5 µM;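 active means mean at 75% or more and at least half the replicates too; tested in HMLE shEcad cells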;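 further: 0% = median of negative and 100% = median of positive control wells; the first replicate is given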
HIV Env fusion – inhibitors of HIV Env-mediated cell fusion; HeLa-JRFL Env/CEM21 cell fusion, luciferase; inhibition, % at 12.3 µM; 360,000 compounds, 1.1% hits; AID 651610;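 active means mean replicate inhibition score of at least 50 and every replicate individually at or above 50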;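 further: 0% = plate neutral controls and 100% = maraviroc near 300 nM; one replicate is shown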
eIF4H inh retest – also measured in eIF4H inh; calls as there; inhibition, %; compound at 20 µM; confirmation average;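 mean of two retest wells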
PABP FP inh retest – also measured in PABP FP inh; calls as there; inhibition, %; compound at 20 µM; confirmation repeats;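 mean of two retest wells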
MT1-MMP act inh RFP – also measured in MT1-MMP act inh; calls as there; RFP signal change, %; measured here: RFP expression control read;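 0 = vehicle wells; hits needed this value within 50% of zero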
Starred values were filed as active, the others as inactive. Some of the compounds tested; the hit share may differ from the screen's.

What do the screens show for `O=S(=O)(Cc1ccccc1)c1nc2ccccc2n1Cc1ccccn1`?
MT1-MMP act inh: -1; Rce1 inhib: inactive; UUG fidelity: -15; eIF4H inh: -3; PABP FP inh: 1; CSC inhib: -6; HIV Env fusion: 3; MT1-MMP act inh RFP: -1

How did COc1cccc(CNS(=O)(=O)c2csc(C(N)=O)c2)c1 do in these assays?
MT1-MMP act inh: 1; Rce1 inhib: inactive; UUG fidelity: -6; eIF4H inh: 6; PABP FP inh: -1; CSC inhib: 21; HIV Env fusion: -12; MT1-MMP act inh RFP: 1

Results for CC1CC1C(=O)OCc1cc(=O)n2cc(Br)ccc2n1 (stereo not given) ?
MT1-MMP act inh: 4; Rce1 inhib: inactive; UUG fidelity: -38; eIF4H inh: -6; PABP FP inh: -12; CSC inhib: 10; HIV Env fusion: -34; MT1-MMP act inh RFP: 3

How did O=C(Nc1ccc2oc(-c3ccccc3F)nc2c1)c1ccc2c(c1)OCCO2 do in these assays?
MT1-MMP act inh: 2; Rce1 inhib: inactive; UUG fidelity: -1; eIF4H inh: -7; PABP FP inh: -4; CSC inhib: 46; MT1-MMP act inh RFP: -7

How did CC(C)CCn1c(=O)c2ccccc2c2ccccc2c1=O do in these assays?
MT1-MMP act inh: -1; Rce1 inhib: inactive; eIF4H inh: 0; PABP FP inh: 66; eIF4H inh retest: -10; PABP FP inh retest: 3; MT1-MMP act inh RFP: 3

What do the screens show for `O=C(Cn1c(C2CC2)nc2ccccc2c1=O)Nc1ccc(Br)cc1`?
MT1-MMP act inh: 4; Rce1 inhib: inactive; UUG fidelity: -17; eIF4H inh: -4; PABP FP inh: 0; CSC inhib: -14; HIV Env fusion: -26; MT1-MMP act inh RFP: 1

Results for CCN(CC)S(=O)(=O)c1cccc(NC(=O)COc2ccc(F)cc2Br)c1 ?
MT1-MMP act inh: 9; Rce1 inhib: inactive; eIF4H inh: 2; PABP FP inh: 1; CSC inhib: -5; HIV Env fusion: -6; MT1-MMP act inh RFP: -11

How did O=C(O)c1ccc(CNCc2cccc(Cl)c2)cc1 do in these assays?
MT1-MMP act inh: 2; Rce1 inhib: inactive; eIF4H inh: -6; PABP FP inh: -1; CSC inhib: 18; HIV Env fusion: -4; MT1-MMP act inh RFP: 2

Results for CC(C)c1ccc(OCc2ccc(C(=O)N3CCN(c4ccccn4)CC3)cc2)cc1 ?
MT1-MMP act inh: -6; Rce1 inhib: inactive; UUG fidelity: 2; eIF4H inh: -10; PABP FP inh: 4; MT1-MMP act inh RFP: -22

Results for CCOC(=O)c1ccc(NC(=O)NC2CC3CCC(C2)N3)cc1 (stereo not given) ?
MT1-MMP act inh: 0; Rce1 inhib: inactive; eIF4H inh: 3; PABP FP inh: -2; CSC inhib: 12; HIV Env fusion: 6; MT1-MMP act inh RFP: 3

How did Cc1ccccc1-c1nnc(SCc2ccccc2)o1 do in these assays?
MT1-MMP act inh: 8; Rce1 inhib: inactive; UUG fidelity: -19; eIF4H inh: -7; PABP FP inh: -4; CSC inhib: 0; HIV Env fusion: -132; MT1-MMP act inh RFP: -3

What do the screens show for `CCOc1ccc(N2CSC(=S)N(c3ccc(OCC)cc3)C2)cc1`?
MT1-MMP act inh: 2; Rce1 inhib: inactive; UUG fidelity: -34; eIF4H inh: 4; PABP FP inh: 0; CSC inhib: -3; HIV Env fusion: 3; MT1-MMP act inh RFP: 0

How did COc1cccc(/C=C(/CC(=O)Nc2ccc(N3CCOCC3)cc2)c2nc3ccccc3s2)c1 do in these assays?
MT1-MMP act inh: -8; Rce1 inhib: inactive; UUG fidelity: -20; eIF4H inh: -10; PABP FP inh: -1; CSC inhib: 20; HIV Env fusion: -107; MT1-MMP act inh RFP: -4

What do the screens show for `Cc1ccc(C)c(S(=O)(=O)N2CCN(CC(=O)N3CCc4ccccc4C3)CC2)c1`?
MT1-MMP act inh: -4; Rce1 inhib: inactive; eIF4H inh: -2; PABP FP inh: 43; CSC inhib: -11; MT1-MMP act inh RFP: -3

What do the screens show for `CCOC(=O)c1cnc(SCC(=O)N2CCN(C(=O)c3ccco3)CC2)nc1N`?
MT1-MMP act inh: 12; Rce1 inhib: inactive; UUG fidelity: 40; eIF4H inh: -11; PABP FP inh: -6; CSC inhib: -7; HIV Env fusion: -21; MT1-MMP act inh RFP: 5

What do the screens show for `COc1ccccc1OCCNC(=O)CC(NC(C)=O)c1ccccc1` (stereo not given)?
MT1-MMP act inh: -1; Rce1 inhib: inactive; UUG fidelity: -12; eIF4H inh: -3; PABP FP inh: 5; CSC inhib: -2; HIV Env fusion: 1; MT1-MMP act inh RFP: 2

Results for O=C1CCCN1CCCNC(=S)Nc1ccc(Br)cc1Cl ?
MT1-MMP act inh: 1; Rce1 inhib: inactive; eIF4H inh: -10; PABP FP inh: -10; HIV Env fusion: 12; MT1-MMP act inh RFP: -2

How did CCCCN(C(=O)CCC(=O)Nc1cc(C)on1)C(C(=O)NC(C)(C)C)c1ccccc1Cl (stereo not given) do in these assays?
MT1-MMP act inh: -4; Rce1 inhib: inactive; UUG fidelity: -9; eIF4H inh: 0; PABP FP inh: -18; CSC inhib: 1; HIV Env fusion: 43; MT1-MMP act inh RFP: -4

Results for Cc1ccc(C(=O)Nc2nnc(S(=O)(=O)N3CCC(C)CC3)s2)cc1 ?
MT1-MMP act inh: 0; Rce1 inhib: inactive; UUG fidelity: -4; eIF4H inh: -4; PABP FP inh: 6; CSC inhib: 10; HIV Env fusion: 2; MT1-MMP act inh RFP: -1

Results for O=C(NCC1CCCN(C(=O)CN2CCCCC2)C1)c1ccccc1Cl (stereo not given) ?
MT1-MMP act inh: 6; Rce1 inhib: inactive; UUG fidelity: -2; eIF4H inh: 6; PABP FP inh: 4; CSC inhib: -20; HIV Env fusion: -12; MT1-MMP act inh RFP: -2

Reprinted from the part before: 3 compounds; new compounds follow.
How did CCCCN(C(=O)CCC(=O)Nc1cc(C)on1)C(C(=O)NC(C)(C)C)c1ccccc1Cl (stereo not given) do in these assays?
MT1-MMP act inh: -4; Rce1 inhib: inactive; UUG fidelity: -9; eIF4H inh: 0; PABP FP inh: -18; CSC inhib: 1; HIV Env fusion: 43; MT1-MMP act inh RFP: -4

Results for Cc1ccc(C(=O)Nc2nnc(S(=O)(=O)N3CCC(C)CC3)s2)cc1 ?
MT1-MMP act inh: 0; Rce1 inhib: inactive; UUG fidelity: -4; eIF4H inh: -4; PABP FP inh: 6; CSC inhib: 10; HIV Env fusion: 2; MT1-MMP act inh RFP: -1

Results for O=C(NCC1CCCN(C(=O)CN2CCCCC2)C1)c1ccccc1Cl (stereo not given) ?
MT1-MMP act inh: 6; Rce1 inhib: inactive; UUG fidelity: -2; eIF4H inh: 6; PABP FP inh: 4; CSC inhib: -20; HIV Env fusion: -12; MT1-MMP act inh RFP: -2

How did O=C(Nc1cccc(NC(=O)c2ccc(Br)cc2)c1)c1ccccc1 do in these assays?
MT1-MMP act inh: 1; Rce1 inhib: inactive; UUG fidelity: -4; eIF4H inh: -36; PABP FP inh: 9; CSC inhib: -4; HIV Env fusion: -4; MT1-MMP act inh RFP: 2

How did COC(=O)Cc1c[nH]c2ccc(OCC(O)CNC(C)C)cc12 (stereo not given) do in these assays?
MT1-MMP act inh: 4; Rce1 inhib: inactive; UUG fidelity: -19; eIF4H inh: -1; PABP FP inh: 1; CSC inhib: -6; MT1-MMP act inh RFP: 6

How did O=C(Nc1cc(C(F)(F)F)ccc1N1CCCCC1)c1ccc(Br)o1 do in these assays?
MT1-MMP act inh: -1; Rce1 inhib: inactive; UUG fidelity: -13; eIF4H inh: -4; PABP FP inh: 1; CSC inhib: 82*; HIV Env fusion: -61; MT1-MMP act inh RFP: -9

What do the screens show for `O=C(c1cccc(C(F)(F)F)c1)C1CCCN(C(=O)CN2CCCC2=O)C1` (stereo not given)?
MT1-MMP act inh: 3; Rce1 inhib: inactive; UUG fidelity: 3; eIF4H inh: 1; PABP FP inh: -5; CSC inhib: -5; HIV Env fusion: 11; MT1-MMP act inh RFP: -2

How did O=S(=O)(NCc1csc(-c2cccs2)n1)c1cccc(C(F)(F)F)c1 do in these assays?
MT1-MMP act inh: 0; Rce1 inhib: inactive; UUG fidelity: 1; eIF4H inh: -4; PABP FP inh: -2; CSC inhib: -1; HIV Env fusion: 1; MT1-MMP act inh RFP: -2

Results for CCCc1ccc(S(=O)(=O)N2CCN(C(C)C(=O)NC3CCCC3)CC2)cc1 (stereo not given) ?
MT1-MMP act inh: -4; UUG fidelity: 13; HIV Env fusion: -1; MT1-MMP act inh RFP: -4

What do the screens show for `N#Cc1ccc(C(=O)Nc2cccc(S(=O)(=O)NC3=NCCC3)c2)cc1`?
MT1-MMP act inh: -1; UUG fidelity: -10; CSC inhib: 12; MT1-MMP act inh RFP: -7

What do the screens show for `c1ccc2c(c1)ncn2Cc1nnc2sc(-c3ccc4c(c3)OCO4)nn12`?
MT1-MMP act inh: 7; Rce1 inhib: inactive; UUG fidelity: -11; eIF4H inh: 5; PABP FP inh: 1; CSC inhib: -1; HIV Env fusion: -5; MT1-MMP act inh RFP: 0

How did CCOc1ccc(NC(=O)C2=C(C)C(=O)OC23CCC(C)CC3)cc1 (stereo not given) do in these assays?
MT1-MMP act inh: 3; Rce1 inhib: inactive; UUG fidelity: -7; eIF4H inh: -1; PABP FP inh: 8; CSC inhib: -8; HIV Env fusion: -16; MT1-MMP act inh RFP: 1

What do the screens show for `O=C(N/N=C1\CCS(=O)(=O)c2ccc(F)cc21)c1ccc(O)cc1`?
MT1-MMP act inh: 3; Rce1 inhib: inactive; eIF4H inh: 4; PABP FP inh: -2; CSC inhib: -1; HIV Env fusion: 4; MT1-MMP act inh RFP: 7

Results for COc1ccc(C(=O)/C=C/Nc2ccccn2)c(OC)c1 ?
MT1-MMP act inh: 2; Rce1 inhib: inactive; UUG fidelity: 1; eIF4H inh: 2; PABP FP inh: -1; CSC inhib: -12; HIV Env fusion: -47; MT1-MMP act inh RFP: 3

Results for COc1ccc(NC(=O)C#Cc2ccccc2)cc1 ?
MT1-MMP act inh: 6; Rce1 inhib: inactive; UUG fidelity: -5; eIF4H inh: -4; PABP FP inh: 1; CSC inhib: 19; HIV Env fusion: -39; MT1-MMP act inh RFP: 3

What do the screens show for `COC(=O)C[C@H]1c2ccccc2S(=O)(=O)N1c1cccc(OC)c1`?
MT1-MMP act inh: -2; Rce1 inhib: inactive; UUG fidelity: -12; CSC inhib: -22; HIV Env fusion: 12; MT1-MMP act inh RFP: -2

What do the screens show for `CCOC(=O)CCCCCC(=O)Nc1ccc2c(c1)C(=O)N([C@@H](C)CO)C[C@@H](C)[C@H](CN(C)C(=O)Nc1ccccc1)OCCCC[C@H](C)O2`?
MT1-MMP act inh: 0; UUG fidelity: 2; HIV Env fusion: 6; MT1-MMP act inh RFP: 3

Results for Cc1ccc(N2C(=O)C3Sc4[nH]c(=O)sc4C(c4ccccc4)C3C2=O)cc1 (stereo not given) ?
MT1-MMP act inh: -1; UUG fidelity: -17; eIF4H inh: -2; PABP FP inh: 2; MT1-MMP act inh RFP: 1

How did COc1ccc(C(=O)CSc2nc(SC)ns2)cc1OC do in these assays?
MT1-MMP act inh: -4; Rce1 inhib: inactive; UUG fidelity: -12; eIF4H inh: 8; PABP FP inh: -6; CSC inhib: -14; MT1-MMP act inh RFP: -1

What do the screens show for `Fc1ccc(-c2cc(C(F)(F)F)nc(-n3cccn3)n2)cc1`?
MT1-MMP act inh: -5; Rce1 inhib: inactive; UUG fidelity: -13; eIF4H inh: 0; PABP FP inh: 11; CSC inhib: -12; HIV Env fusion: 9; MT1-MMP act inh RFP: -7

Results for Fc1cnc(Cl)nc1NC1CCCCC1 ?
MT1-MMP act inh: -3; Rce1 inhib: inactive; UUG fidelity: -7; eIF4H inh: -5; PABP FP inh: -2; CSC inhib: -13; HIV Env fusion: -2; MT1-MMP act inh RFP: -4

Source: PubChem BioAssay
